PK Bst – alters activity of Bacillus stearothermophilus pyruvate kinase; partly purified Bacillus stearothermophilus pyruvate kinase, luminescence ATP production; ribose 5-phosphate activator present at AC10; Potency, µM; 1.2% of 51,000 active; AID 361; in the data active means potency below about 11 µM; inconclusive means mostly about 12 µM to 25 µM; inactive means weaker than that;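 the screen sought inhibitors and activators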;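 note: potency is the fitted concentration of half-maximal effect; scaled between full activation by ribose 5 phosphate and full inhibition by luteolin; about four in five hits inhibit and the cells do not say which; series up to 57 µM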
YjeE inh – inhibitors of E. coli YjeE (TsaE); P0AF67; purified YjeE, fluorescence polarisation of a bound ADP probe; Potency, µM; 0.05% of 71,000 active; active = well fitted falling curve; inconclusive = weaker or top-dose-only fall, or a rising curve; inactive = flat or poorly fitted curve;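 note: top concentration of the series not given in the record; excess ADP was the control for the full effect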
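Fluorescence polarization of a BODIPY Texas Red–ADP probe (2 uM) bound to purified YjeE (10 uM) was read after 15 min room-temperature incubation with compounds. Loss of polarization marks inhibitors; ADP serves as titrated control.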
Numbers without * were called inactive; i = inactive; u = inconclusive; x = no result given.

The line under a structure holds: PK Bst, YjeE inh
- CSc1nnc(-c2ccc(NC(=O)CCc3ccccc3)cc2)n1C
    >57, i
- N#Cc1c2n(c3c(-c4ccccc4)ncnc13)CCC2
    x, i
- COc1ccccc1Oc1coc2c(CN3CCN(C)CC3)c(O)ccc2c1=O
    >57, i
- CCOc1ccc(C(=O)Nc2cccc(-c3nc4cccnc4o3)c2)cc1Cl
    >57, i
- Cc1noc(C)c1COc1cccc(C(=O)N2CCN(C/C=C/c3ccccc3)CC2)c1
    >57, i
- COc1cc(NC(=O)CC(C)C)ccc1NC(=O)c1ccco1
    x, i
- Cc1c(NC(=O)C23CC4CC(CC(C)(C4)C2)C3)c(=O)n(-c2ccccc2)n1C
    >57, i
- CCOC(=O)c1ccc(NS(=O)(=O)c2ccc3c(c2)oc(=O)n3C)cc1
    x, i
- C=CCn1c(NCc2ccccc2)nc2ccccc21
    >57, i
- CCOC(=O)C1CCN(C(=O)Cn2cc(C(=O)C3CC3)c3ccccc32)CC1
    >57, i
- Cc1cc(OCC(=O)O)c(Cl)cc1Cl
    x, i
- O=C(Cn1cc(C(=O)c2cccs2)c2ccccc21)NCC1CCCO1 (stereo not drawn)
    >57, i
- COc1ccc(C2c3c(oc4ccc(Cl)cc4c3=O)C(=O)N2Cc2ccco2)cc1OC (stereo not drawn)
    >57, i
- Cc1noc(C)c1CN1C(=O)NC2(CCCCCCC2)C1=O
    >57, i
- Cc1cc2ccccc2n2c(SCC(=O)N3CCN(C(=O)c4ccco4)CC3)nnc12
    x, i
- CCOC(=O)c1ccc(N=Cc2nc3ccccc3n2C)cc1
    x, i
- Cc1ccc(-c2noc(CSc3nnnn3C3CCCCC3)n2)cc1
    x, i
- O=C(NCCCN1CCCC1=O)C1CCN(S(=O)(=O)N2CCOCC2)CC1
    >57, i
- Cc1ccc2c(c1)N(CC(=O)NCc1cccs1)C(=O)CO2
    >57, i
- COC(=O)c1cn(NC(=O)C2CCCO2)c(=O)c2ccccc12 (stereo not drawn)
    >57, i
- Cc1cc(C)cc(NC(=O)C2CCCC2)c1
    >57, i
- O=C(CCCSc1nc2ccccc2[nH]1)NCc1ccco1
    >57, i
- CSc1ccc(C2C(C#N)=C(N)Oc3c2ccc(=O)c2c(C)oc(C)c32)cc1 (stereo not drawn)
    >57, i
- CC1(C)Cc2c(C#N)c(N3CCN(C(=O)c4ccco4)CC3)nc(-c3ccco3)c2CS1
    >25.6, x
- O=C(COc1ccc(F)cc1)Nc1ccc(-n2cnnn2)cc1
    x, i
- CCN(CC)CCNC(=O)Cc1c(C(=O)O)n(C)c2ccccc12
    >57, i
- Nc1cccc(C(=O)Nc2ccccc2Cl)c1
    x, i
- O=C(O)COc1ccc(-c2nnn(CC(=O)O)n2)cc1
    >57, i
- Cc1c(NC(=O)C2CC(c3c(F)cccc3Cl)=NO2)c(=O)n(-c2ccccc2)n1C (stereo not drawn)
    >57, i
- CCOc1ccccc1NC(=O)Cn1c(C)cc(COC)c(C#N)c1=O
    >57, i
- O=C(Cn1cnc2ccccc2c1=O)NCCC(=O)Nc1ccc2c(c1)OCCO2
    >57, i
- Cc1ccc(NC(=O)c2noc3c2CCCCC3)cc1C
    >57, i
- CCOCCn1c(SCc2c(F)cccc2Cl)nc2c1c(=O)[nH]c(=O)n2C
    >25.6, x
- Cc1ccc(-c2cc(C(F)F)n3ncc(C(=O)N4CCN5CCCC5C4)c3n2)cc1 (stereo not drawn)
    >57, i
- CCOC(=O)C1=C(C)Nc2nc(C)nn2C1c1ccc(OC)c(OC)c1 (stereo not drawn)
    x, i
- O=c1c(-c2ccc(F)cc2)nc2cnc(N3CCNCC3)nc2n1C1CC1
    x, i
- CCOCCn1c(N(C)Cc2ccccc2)nc2c1c(=O)[nH]c(=O)n2C
    >57, i
- O=C(CSCc1ccccc1)NC1CCSC1=O (stereo not drawn)
    >57, i
- COc1cccc(C2CC(c3ccccc3Cl)Nc3ncnn32)c1 (stereo not drawn)
    8.35*, i
- O=C(NCCO)c1ccc2[nH]c3c(c2c1)CCCC3
    x, i
- CCN1CCN(C(=O)C2CCN(Cc3nc(-c4ccc(Cl)cc4)oc3C)CC2)CC1
    x, i
- O=C(NCc1ccco1)c1ccc2snnc2c1
    x, i
- CCCn1c2c(c(O)c(C(=O)NC)c1=O)CCCC2
    >57, i
- CCn1cc(C(=O)NCc2ccc(OC)cc2OC)c(=O)c2ccc(C)nc21
    >57, i
- COc1ccc(-n2c(COc3ccc(C)cc3)nnc2SCC(N)=O)cc1
    >57, i
- CCOC(=O)c1ccc(S(=O)(=O)N2CCN(CC(=O)NC(=O)NC3CCCCC3)CC2)cc1
    >57, i
- CCC(=O)Nc1cc2c(cc1C(=O)c1ccccc1)OCCO2
    >57, i
- CCC(c1nnnn1C(C)(C)C)N(CCOC)Cc1cc2cccc(C)c2n2nnnc12 (stereo not drawn)
    >57, i
- O=c1ccc2cc(S(=O)(=O)N3CCOCC3)ccc2o1
    >57, i
- O=C(O)c1ccc(S(=O)(=O)N2CCC(c3nc(-c4ccccc4Cl)no3)CC2)cc1
    >57, i

Carrying on:
The line under a structure holds: PK Bst, YjeE inh
- CCCc1nn(C)c2c1C(c1cccnc1)C(C#N)=C(N)O2 (stereo not drawn)
    >25.6, x
- Cc1ccccc1NC(=O)N1CCCC(c2nc(-c3ccc(F)cc3)no2)C1 (stereo not drawn)
    >57, i
- COc1cccc(NC(=O)c2nc3ncccn3n2)c1
    >57, i
- Cn1c(=O)c(CCc2ccccc2)nc2cnc(OCc3ccccc3)nc21
    x, i
- COC(=O)c1cccc(C(=O)Nc2ccc(C)cc2)n1
    x, i
- CCCOc1ccc(C(=O)C(c2ccccc2)N2CCOCC2)cc1 (stereo not drawn)
    >57, i
- O=C(O)Cc1ccc(NC(=O)C2CCCCC2C(=O)O)cc1 (stereo not drawn)
    x, i
- COc1ccc(C/C(N)=N/n2cnnc2)cc1Cl
    x, i
- CC1(C2(O)CC(c3ccccc3)ON2)CCCCC1 (stereo not drawn)
    >25.6, x
- O=C(CCc1ccccc1)Nc1nc2n(n1)C(c1ccccc1)CC(=O)N2 (stereo not drawn)
    >57, i
- COC(=O)c1cc(=O)nc2sc(-c3ccccc3)nn12
    >57, i
- COc1cc(CO)cc(Br)c1OCC(=O)N1CCCCC1
    >57, i
- NC(=O)c1ccc(-n2nnnc2Oc2ccccc2)cc1
    >57, i
- CC1(C)CC(CCC(=O)Nc2ccc(S(N)(=O)=O)cc2)C(=O)O1 (stereo not drawn)
    >57, i
- Cc1n[nH]c(C)c1S(=O)(=O)N(CC(=O)NC1CCCC1)c1ccc(C(C)C)cc1
    x, i
- CCc1nnc(NC(=O)CN2CCN(c3ccccc3OC)CC2)s1
    >57, i
- CCOc1ccc(N=NS(=O)(=O)O)cc1
    x, i
- CC(C)OC(=O)CC(=O)CSc1nc2c(cc1C#N)CCC2
    i, i
- Cc1cccc(C(=O)c2ccccc2C(=O)O)c1O
    >57, i
- O=C(O)CCCC(=O)Nc1ccc(C(=O)N2CCCCC2)c(Cl)c1
    >57, i
- O=C(Cn1c(=O)oc2cc(S(=O)(=O)N3CCCCCC3)ccc21)NC1CCCCC1
    x, i
- O=C(Nc1cccc(F)c1)N1CC=C(n2c(=O)[nH]c3ccccc32)CC1
    >57, i
- COc1ccc2nc(SCC(N)=O)cc(C)c2c1
    u, i
- Cc1cc2c(=O)n(Cc3ccco3)c(SCC(=O)N3CCCc4ccccc43)nc2s1
    >57, i
- CCCCC1CCC(C(=O)NC2CCS(=O)(=O)C2)CC1 (stereo not drawn)
    >57, i
- CCOC(=O)N1CCN(C(=O)CSc2nnc(CNC(=O)c3ccccc3F)o2)CC1
    >57, i
- Cn1c(=O)c(-c2ccccc2)nc2cnc(N3CCOCC3)nc21
    x, i
- CN(CCCNC(=O)COc1cc(=O)n(C)c2ccccc12)Cc1ccccc1
    >57, i
- COC(=O)[C@H]1C[C@@H]1[C@H](N)c1ccccc1
    x, i
- Cc1nnc(NC(=O)CSc2nnnn2Cc2ccccc2)s1
    >57, i
- O=S(=O)(O)CCCc1cccc2ccccc12
    x, i
- CCOC(=O)c1ccc(N2C(=O)CC(N3CCOCC3)C2=O)cc1 (stereo not drawn)
    >57, i
- c1ccc2c3c(cc(N4CCOCC4)c2c1)OC1(N2CCOCC2)CCCCC1O3 (stereo not drawn)
    >57, i
- Cc1sc2ncnc(Sc3nnnn3-c3ccccc3)c2c1C
    >57, i
- CCn1nnc(NC(=O)c2cc(Cl)c(OC)c(Cl)c2)n1
    >57, i
- C=CCn1sc(=N)c(C#N)c1N
    >57, i
- O=C(O)c1cc(-c2ccncc2)nc2ccc(S(=O)(=O)N3CCOCC3)cc12
    >57, i
- Cn1c(SCc2cccc(F)c2)nnc1-c1ccccn1
    >57, i
- C=CCc1cccc(CNc2nc3ccccc3n2CCN2CCOCC2)c1O
    >57, i
- COc1ccc2c(CC(=O)N(C)CC3COc4ccccc4O3)coc2c1 (stereo not drawn)
    >57, i
- CC(=O)Nc1ccn(Cc2c(F)cccc2Cl)n1
    >57, i
- CCOc1ccc(NC(=O)CC2NCCNC2=O)cc1 (stereo not drawn)
    >57, i
- Nc1cc([N+](=O)[O-])ccc1O
    x, i
- CC(=O)Nc1nnc(S(N)(=O)=O)s1
    >25.6, i
- CCC(C)N1C(=O)c2ccccc2C1C(=O)NC1CCCCCC1 (stereo not drawn)
    >57, i
- Cc1cnc(C(=O)Nc2ccccc2-c2nnn(CC(=O)NC3CCCC3)n2)cn1
    >57, i
- COc1c(Br)cc2c(C)c(C(=O)N3CCOCC3)oc2c1Br
    x, i
- CCCOc1cccc(C2/C(=C(/O)c3ccccc3)C(=O)C(=O)N2CCN(C)C)c1 (stereo not drawn)
    >25.6, x
- C=CCSc1nnc(-c2c[nH]c3ccccc23)n1CCOC
    >57, i
- Nc1ncnc2c1nc(-c1ccccc1)n2[C@H]1O[C@@H](CO)[C@@H](O)[C@H]1O
    x, i

New compounds follow:
The line under a structure holds: PK Bst, YjeE inh
- CCOC(=O)CSCC(=O)Nc1cc(C)ccc1C
    >57, i
- Cc1nc2cnc(N3CCNCC3)nc2n(C2CC2)c1=O
    x, i
- Cc1ccc(C(=O)Nc2ccccc2C(N)=O)o1
    >57, i
- FC(F)(F)c1cccc(NCc2cn3cccnc3n2)c1
    >57, i
- COc1ccc(C)cc1NC(=O)CCC(=O)Nc1ccc2nc(N3CCN(C)CC3)cc(C)c2c1
    >57, i
- CCCc1cc(=O)[nH]c(=S)[nH]1
    >25.6, i
- CCc1nnc(NC(=O)CSc2nnc(CCc3nc4ccccc4[nH]3)n2C)s1
    >57, i
- C[C@@H](CCCCC(=O)Nc1ccc(C(F)(F)F)cc1)NCCc1cnc[nH]1
    x, i
- CCN(CCCNS(=O)(=O)c1ccc2c(c1)CCN2C(C)=O)c1cccc(C)c1
    x, i
- CCCC(=O)n1nc(-c2ccc(Cl)cc2)nc1SC
    x, i
- O=C(c1ccccc1F)N1CCC(O)(c2cccnc2)CC1
    >57, i
- COc1ccc(Cl)cc1Nc1nc(N2CCCC2)nc(N2CCCC2)n1
    x, i
- O=C1N(CCCN2C(=O)C3(OCCO3)c3ccccc32)c2ccccc2C12OCCO2
    x, i
- COc1ccc(C(c2nnnn2C(C)(C)C)N2CCN(c3nc4ccccc4s3)CC2)cc1OC (stereo not drawn)
    >57, i
- CCC(=O)/C=C1\Sc2ccc(OC)cc2N1CC
    x, i
- CCNc1ncc2nc(-c3cccs3)c(=O)n(CCC#N)c2n1
    x, i
- Cc1ccc(CNC(=O)c2cc3c(=O)n4ccccc4nc3n(CC3CCCO3)c2=N)cc1 (stereo not drawn)
    >25.6, x
- COc1ccccc1NC(=O)C1=C(C)Nc2nnnn2C1c1ccncc1 (stereo not drawn)
    >57, i
- CCOC(=O)CSc1nc2ccccc2c(=O)n1NC(=O)c1ccccc1
    >57, i
- O=C(c1ccccn1)N(CC1CCCO1)C1(C(=O)NC2CCCCC2)CCCCC1 (stereo not drawn)
    >57, i
- COc1ccc(CCNC(=O)c2c(O)c3c([nH]c2=O)CCCC3)cc1
    >57, i
- CC[C@H](C)C(=O)O[C@@H]1C[C@H](C)C=C2C=C[C@H](C)[C@@H](CC[C@H]3C[C@@H](O)CC(=O)O3)[C@H]21
    x, i
- O=C(c1ccc2c(=O)n(-c3ccccc3)c(=O)[nH]c2c1)N1CCN(c2ccc(F)cc2)CC1
    >57, i
- COc1ccc(N(C(=O)c2ccco2)S(=O)(=O)c2cc(OC)ccc2OC)cc1
    >57, i
- COc1cc(C(=O)OC2CCN(C)CC2)cc(OC)c1OC
    >57, i
- CCOc1ccccc1/C=c1\sc2nc(-c3ccco3)nn2c1=O
    >57, i
- O=C(O)CSC1CC(=O)N(c2ccc(Cl)cc2)C1=O (stereo not drawn)
    >57, i

Only part of the results is shown (hit frequency here may not be typical).
